# TsaE inh = displaces an ADP probe from E. coli YjeE (TsaE); P0AF67; purified YjeE, fluorescence polarisation of a bound ADP probe; Potency, µM; 71,000 tested, 0.05% active; active = well fitted falling curve; inconclusive = weaker or top-dose-only fall, or a rising curve; inactive = flat or poorly fitted curve;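 note: top concentration of the series not given in the record; excess ADP was the control for the full effect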
#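 Purified YjeE (10 uM) with BODIPY Texas Red-labeled ADP probe (2 uM); compounds pin-transferred, 15 min at room temperature. Binding inhibition read as decreased fluorescence polarization; ADP titration as control.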
# PK Bst = modulators of Bacillus stearothermophilus pyruvate kinase. partly purified Bacillus stearothermophilus pyruvate kinase, luminescence ATP production; ribose 5-phosphate activator present at AC10. Potency, µM. 51,000 tested, 1.2% active. AID 361; in the data active means potency below about 11 µM; inconclusive means mostly about 12 µM to 25 µM; inactive means weaker than that;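 the screen sought inhibitors and activators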;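 note: potency is the fitted concentration of half-maximal effect; scaled between full activation by ribose 5 phosphate and full inhibition by luteolin; about four in five hits inhibit and the cells do not say which; series up to 57 µM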
# Active calls of the source: *; i = inactive; ? = inconclusive; . = not tested or not shown. A portion of the library; the hit share may differ from the screen's.
TsaE inh,PK Bst,SMILES
i,>57,CCc1ccc(-c2nc(CN3CCC(C(=O)NCc4ccc(F)cc4)CC3)c(C)o2)cc1
i,>57,CC(C)Cn1c(N)c(C(=O)NCC2CCCO2)c2nc3ccccc3nc21 (stereo not drawn)
i,.,c1ccc2sc(N3CCN(Cc4ccc5c(c4)OCO5)CC3)nc2c1
i,>57,COc1cccc(CNC(=O)C2CCN(S(=O)(=O)N3CCCC3)CC2)c1
i,>57,COC(=O)CNc1n[nH]c(=S)[nH]c1=O
i,>57,Cc1ccc(NC(=O)CSC2=C(C#N)C(c3ccco3)C3=C(CC(C)(C)CC3=O)N2)cc1 (stereo not drawn)
i,.,CCOc1cc(C(=O)N(C)c2ccccc2)cc(OCC)c1OCC
i,.,C[C@H](Oc1ccccc1)C(=O)N[C@@H]1C(=O)N2[C@@H]1SC(C)(C)[C@@H]2C(=O)O
i,>57,CCc1cc2c(=O)n(Cc3ccco3)c(SCC(=O)N3CCCc4ccccc43)nc2s1
i,>57,O=C(CCCN1C(=O)c2ccccc2C1=O)Nc1ccc(Br)cn1
i,.,Cc1ccc(C2/C(=C(/O)c3ccccc3)C(=O)C(=O)N2CCN2CCOCC2)o1 (stereo not drawn)
i,>57,CCOC(=O)c1ccc(NC(=O)COc2ccc(-n3cnnn3)cc2)cc1
i,>57,Cc1nnc(NC(=O)C2C3C=CC(O3)C2C(=O)O)s1 (stereo not drawn)
i,>57,Cn1c(N)c(C(=O)COC(=O)c2cccs2)c(=O)n(C)c1=O
i,>57,COc1ccc(Cn2nnnc2C(CC(C)C)N2CCN(c3ccccc3)CC2)cc1 (stereo not drawn)
i,?,Cc1nc(NC(=O)COC(=O)C(NC(=O)c2ccco2)C(C)C)c(Cl)cc1Cl (stereo not drawn)
i,>57,Fc1ccc(-n2[nH]nnc2=S)cc1N1CCCC1
i,>57,CCOC(=O)C(CC(C)C)CP(=O)(O)CNC(=O)OCc1ccccc1 (stereo not drawn)
i,>57,O=C(Cn1nc(C(F)(F)F)c2c1CCC2)NC1CCCCC1
i,>57,CCOc1ccc(S(=O)(=O)Nc2cc(OC)ccc2OC)cc1
i,>57,O=c1[nH]c(-c2ccc(Cl)cc2)nc2c1cnn2-c1ccccc1
i,.,O=C(O)[C@@H](O)[C@@H](O)[C@@H](O)[C@@H](O)c1nc2ccccc2s1
i,.,CSc1ccc(S(=O)(=O)N2CCN(Cc3ccc4c(c3)OCO4)CC2)cc1
i,.,CC(=O)N1CCC2(CCCN(c3ccccc3)C2)CC1
i,.,CN(C)C(=O)c1ccc(-c2ccc3ncnc(N4CCNCC4)c3c2)cc1
i,>57,CS(=O)(=O)N1CCC(C(=O)NCc2ccc(F)cc2Cl)CC1
i,>57,CCOc1ccccc1CN1C(=O)NC(C)(c2ccccc2)C1=O (stereo not drawn)
i,.,COC(=O)c1sc2nc(-c3ccco3)ccc2c1N
i,>57,COc1ccccc1C1/C(=C(/O)c2ccccc2)C(=O)C(=O)N1CC(C)O (stereo not drawn)
i,>57,O=C(Nc1ccc2c(c1)CCC2)C1CCN(c2ncccn2)CC1

# Four entries from above, field by field:
Cn1c(N)c(C(=O)COC(=O)c2cccs2)c(=O)n(C)c1=O
  TsaE inh = i
  PK Bst = >57
COc1ccc(Cn2nnnc2C(CC(C)C)N2CCN(c3ccccc3)CC2)cc1 (stereo not drawn)
  TsaE inh = i
  PK Bst = >57
Cc1nc(NC(=O)COC(=O)C(NC(=O)c2ccco2)C(C)C)c(Cl)cc1Cl (stereo not drawn)
  TsaE inh = i
  PK Bst = ?
Fc1ccc(-n2[nH]nnc2=S)cc1N1CCCC1
  TsaE inh = i
  PK Bst = >57

# Returning to the listing, starting 2 compounds before the break.
TsaE inh,PK Bst,SMILES
i,>57,COc1ccccc1C1/C(=C(/O)c2ccccc2)C(=O)C(=O)N1CC(C)O (stereo not drawn)
i,>57,O=C(Nc1ccc2c(c1)CCC2)C1CCN(c2ncccn2)CC1
i,>57,O=C(NCc1ccccn1)c1ccc(CS(=O)(=O)Cc2ccc(Cl)cc2)o1
i,.,CCOC(=O)C1CCCN(C(=O)c2ccco2)C1 (stereo not drawn)
.,i,COc1ccc(-n2ncc3c(Nc4cccc(C)c4)ncnc32)cc1
i,.,CCCCOc1ccccc1C1NC(=O)NC(C)=C1C(=O)OCCOCC (stereo not drawn)
i,.,COC(=O)CC#N
i,>57,OC(COc1ccc2c(c1)CCC2)CN1CCN(c2ccccc2F)CC1 (stereo not drawn)
.,>26,O=S(=O)(N[C@@H]1C[C@H]2CC[C@@H]1C2)c1cccs1
i,.,N#Cc1ccc(CN2CC[C@@]3(CCCN(S(=O)(=O)c4ccccc4)C3)C2)cc1
i,.,COc1ccc(Nc2nc(OC)nc(N3CCN(c4ccc(OC)cc4)CC3)n2)cc1
i,.,O=C(N[C@@H](Cc1ccccc1)C(=O)O)c1cccnc1
i,.,C#C[C@@]1(O)CC[C@@H]2[C@@H]3CCC4=CC(=O)CC[C@@H]4[C@H]3CC[C@]21C
i,>57,CCC1(CC)C(=O)C(C)(C)C(=O)OC1c1ccccn1 (stereo not drawn)
i,>57,CCOc1ccc(Br)cc1-c1noc(-c2cccs2)n1
i,>57,CCOC(=O)c1cc(-c2ccc(C)o2)nn1CCC#N
i,.,CN(C)CCCCCNCCCNC(=O)/C=N\O
i,.,CCN(CC)CCCCCCCCOC(=O)c1cc(OC)c(OC)c(OC)c1
i,>57,CCC(C(=O)Nc1nc(C)cs1)c1ccccc1 (stereo not drawn)
i,>57,CCOc1cc2c(cc1OCC)C(C(=O)O)C(c1ccc(OC)c(O)c1)N(C)C2=O (stereo not drawn)
i,>57,Cc1cc2cc(CN(CC3CCCO3)C(=O)c3cnccn3)c(=O)[nH]c2cc1C (stereo not drawn)
i,>57,O=C(CN1CCN(c2ccccn2)CC1)N1c2ccccc2CCc2ccccc21
79µM*,.,Cc1cc(-c2ccc(N=Nc3ccc4c(S(=O)(=O)O)cc(S(=O)(=O)O)c(N)c4c3O)c(C)c2)ccc1N=Nc1ccc2c(S(=O)(=O)O)cc(S(=O)(=O)O)c(N)c2c1O
i,>57,COc1cc(OC)cc(-c2nnc(SCc3cccnc3)o2)c1
i,>57,Cc1cc(C)nc(NCC(O)COc2ccccc2C)n1 (stereo not drawn)
i,>57,COc1ccc(C2C(C(=O)N3CCC(C)CC3)c3ccccc3C(=O)N2C)cc1 (stereo not drawn)
i,>57,COC(=O)c1ccc2c(c1)NC1=C(C(=O)CC(C)(C)C1)C(c1ccncc1)N2 (stereo not drawn)
i,.,CN(Cc1ccco1)c1nc(-c2ccoc2)nc2ccccc12
i,.,O=C(Nc1ccc2nc(C3CC3)n(Cc3ccc(F)cc3)c(=O)c2c1)c1ccco1
i,>57,CCn1c(C(O)c2cccc(OC)c2OC)nc2ccccc21 (stereo not drawn)
i,>57,Cc1c(NC(=O)CC(=O)Nc2c(C)n(C)n(-c3ccccc3)c2=O)c(=O)n(-c2ccccc2)n1C
i,>57,Cc1cccc(N2CCN(c3cc(C)nc4nnnn34)CC2C)c1 (stereo not drawn)
i,>57,O=C(NCCCn1ccnc1)c1cccc(S(=O)(=O)Nc2ccccc2F)c1
i,.,Cc1ccccc1NC(=O)CCn1c(=O)oc2ccccc21
i,>57,N#CCC(=O)Nc1ccccc1C(=O)O
i,>57,CCOC(=O)c1cnc(-n2nc(C)cc2C)nc1N1CC(C)OC(C)C1 (stereo not drawn)
i,>57,CCOC(=O)N1CCN(C(=O)c2ccc3c(=O)n(CCc4ccccc4)c(=O)[nH]c3c2)CC1
i,>11,Clc1cc(Cl)c2nc(N3CCCCC3)sc2c1
i,>57,Cc1cc(NC(=O)CCN2C(=O)C3C4C=CC(C4)C3C2=O)c2ccccc2n1 (stereo not drawn)
i,.,Cc1ncc(COP(=O)(O)O)c(C)c1O
i,>57,Cc1ccc(-c2noc(CN(C(=O)c3cccs3)C(C)C)n2)cc1
i,>57,Cc1ccc(N2CC(C(=O)Nc3cccnc3)CC2=O)cc1 (stereo not drawn)
i,.,Cc1ccc(NC(=O)CN(c2cc(C)cc(C)c2)S(=O)(=O)c2c(C)noc2C)nc1
i,.,CCCCCn1c(CCNC(=O)CCC)nc2ccccc21
i,.,c1ccc(-c2nc3ccccc3nc2N2CCOCC2)cc1
i,>57,CN1C(=O)CC(C(=O)O)SC1=Nc1cccc(C(F)(F)F)c1 (stereo not drawn)
i,>57,Cc1cc(NC(=O)c2cc3n(n2)C(C(F)(F)F)CC(c2ccco2)N3)n(-c2ccccc2)n1 (stereo not drawn)
i,.,COc1ccc(C(=O)N2CCC3(CC2)CCN(c2cccc(-c4ccccc4)c2)CC3)cc1
i,.,COc1cccc(-c2nc(N(C)Cc3ccco3)c3ccccc3n2)c1
i,>57,CCn1c(SCC(=O)N2CCCc3ccccc32)nnc1-c1cccs1
i,.,Cc1ccc(S(=O)(=O)Oc2cc(N)c3c(n2)CCC3)cc1
i,.,O=C(Nc1ccc2c(c1)ncn2C1CCCCC1)c1ccco1
i,.,Cc1ccc(C(=O)CCC(=O)Nc2cccnc2)cc1C
i,.,CO[C@@H](NC(N)=O)C(=O)O
i,.,Cn1c(=O)c(-c2ccc(F)cc2)nc2cnc(OCc3ccccc3)nc21
i,?,CC(Oc1ccc(Cl)cc1Cl)C(=O)Nc1ccc(N2CCN(C)CC2)cc1 (stereo not drawn)
i,.,COCC(=O)N1CCC2(CC1)CN(C(=O)Nc1ccccc1)C2
i,>57,O=C(COc1ccc(S(=O)(=O)Nc2ccccc2)cc1)N1CCOCC1
i,>57,Cc1nn2c3c(cnc2c1-c1ccccc1)C(=O)CC(C)C3 (stereo not drawn)
i,>57,O=C(NCc1ccco1)c1cc(-c2cccs2)on1
i,.,COc1ccc(-c2cc(C(F)(F)F)n3nc(C(=O)N4CCOCC4)c(Cl)c3n2)cc1
i,>57,CCOc1ccc(CCNC(=O)CCc2nc(-c3ccc(C)cc3)no2)cc1OCC

# Next structures.
TsaE inh,PK Bst,SMILES
i,>57,O=C(Nc1nc2c(s1)CCCC2=O)c1cnccn1
i,>57,COc1ccc(S(=O)(=O)CCC(=O)NC2CCCCC2)cc1
i,>57,Cc1ccc(N(CC(=O)N2CCn3c2nc2ccccc23)S(=O)(=O)c2c(C)n[nH]c2C)cc1
i,>57,O=C(Cn1cnc2c(nnn2Cc2ccccc2F)c1=O)OCc1ccccc1
i,.,CCC(=O)c1ccc(CCCCCC(=O)O)s1
i,>57,CC(=O)C1C(c2ccc3ncccc3c2)NC(=O)NC1(O)C(F)(F)F (stereo not drawn)
i,.,CCOC(=O)C1=C(C)NC2(O)c3ccccc3C(=O)C12O (stereo not drawn)
i,.,COc1cccc(CNc2ccc3nc(-c4ccc(N)cc4)c(OC)n3n2)c1
i,>57,CC(c1nnnn1C1CCCCC1)N(Cc1ccccc1)Cc1cccnc1 (stereo not drawn)
i,.,COc1ccccc1C(=O)C1Nc2ccccc2-c2nnc(SC)nc2O1 (stereo not drawn)
i,.,O=C(NCCCN1CCOCC1)C1CCC(=O)N1CCc1ccccc1 (stereo not drawn)
i,.,O=C(NCc1ccccc1Br)c1ccco1
i,>57,CN1CCN(CC#CC2(O)CCCCC2)CC1
i,>57,CCC(=O)Nc1nonc1-c1nc2ccccc2n1Cc1ccc(Cl)c(Cl)c1
i,.,O=[N+]([O-])c1cc(N(CCO)CCO)ccc1NCCO
i,.,O=C(Nc1ccc(CN2CCOCC2)cc1)c1cccs1
i,>57,CCCCCn1c(=O)[nH]c2cc(C(=O)NCCCN3CCC(C)CC3)ccc2c1=O
i,.,CCOc1ccc(NS(=O)(=O)c2cc(Cl)ccc2OC)cc1
i,.,CCOC(=O)N1CCN(c2c(NCCCN(C)c3ccccc3)c(=O)c2=O)CC1
i,.,CC(Sc1nc(-c2ccccc2)cc(C(F)(F)F)n1)C(=O)N1CCCC1 (stereo not drawn)
i,.,N=c1n(CCOc2ccccc2)c2ccccc2n1CCN1CCOCC1
i,.,CCCCCCc1c(O)nc(SCC(=O)O)[nH]c1=O
i,>57,CCNc1nc(OC)nc(SCC(N)=O)n1
i,>57,CCOC(=O)c1cnc2scnn2c1=O
i,>57,CCCc1cc2c(=O)c(-c3ccccn3)c(C)oc2cc1O
i,0.43*,Cn1c(=O)c2nc(-c3ccccc3)oc2c2ccccc21
i,>57,O=c1cc(N2CCN(c3ccc(F)cc3)CC2)[nH]c(=O)n1C1CCCCC1
i,>57,CCOC(=O)Cc1cc(=O)n(-c2nc3ccccc3s2)[nH]1
i,.,C=CCn1c(-c2ccco2)n[nH]c1=S
i,.,COc1ccccc1-c1nc(NC2CC2)c2ccccc2n1

# A run of entries from the list above:
TsaE inh,PK Bst,SMILES
i,>57,CC(c1nnnn1C1CCCCC1)N(Cc1ccccc1)Cc1cccnc1 (stereo not drawn)
i,.,COc1ccccc1C(=O)C1Nc2ccccc2-c2nnc(SC)nc2O1 (stereo not drawn)
i,.,O=C(NCCCN1CCOCC1)C1CCC(=O)N1CCc1ccccc1 (stereo not drawn)
i,.,O=C(NCc1ccccc1Br)c1ccco1

# Next compounds:
TsaE inh,PK Bst,SMILES
i,>57,O=C(Nn1cnnc1)c1ccccc1CCc1ccccc1
i,.,CCNc1ncc2nc(-c3ccc(Cl)cc3)c(=O)n(C[C@H]3CCCO3)c2n1
i,.,CC1CCCC(C)N1c1nnc(NC(=O)Cn2c(=O)oc3ccccc32)s1 (stereo not drawn)
i,>57,CCc1nc(OCCN(CC)CC)c2oc3ccccc3c2n1
